From PubChem BioAssay
Bst PK mod = alters activity of Bacillus stearothermophilus pyruvate kinase | partly purified Bacillus stearothermophilus pyruvate kinase, luminescence ATP production; ribose 5-phosphate activator present at AC10 | Potency, µM | 51,000 compounds, 1.2% hits; in the data active means potency below about 11 µM; inconclusive means mostly about 12 µM to 25 µM; inactive means weaker than that;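 the screen sought inhibitors and activators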;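 note: potency is the fitted concentration of half-maximal effect; scaled between full activation by ribose 5 phosphate and full inhibition by luteolin; about four in five hits inhibit and the cells do not say which; series up to 57 µM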
YjeE inh = inhibitors of E. coli YjeE (TsaE). 71,000 compounds, 0.05% hits. AID 605. Potency, µM. purified YjeE, fluorescence polarisation of a bound ADP probe; active = well fitted falling curve; inconclusive = weaker or top-dose-only fall, or a rising curve; inactive = flat or poorly fitted curve;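 note: top concentration of the series not given in the record; excess ADP was the control for the full effect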
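Purified YjeE (10 uM) with BODIPY Texas Red-labeled ADP probe (2 uM); compounds pin-transferred, 15 min at room temperature. Binding inhibition read as decreased fluorescence polarization; ADP titration as control.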
Starred values were filed as active, the others as inactive; i = inactive; u = inconclusive; x = not tested or not shown. Only part of the results is shown. The share of hits here may be higher or lower than overall.

The opening 4 compounds, ahead of the listing:
compound	Bst PK mod	YjeE inh
O=C(CN(c1ccc(Cl)c(C(F)(F)F)c1)S(=O)(=O)c1ccccc1)N1CCOCC1	x	i
Cc1ccc(S(=O)(=O)N2CCCCC2C(=O)N2CCN(Cc3ccccc3)CC2)cc1 (stereo not drawn)	>11	i
Cn1nc(-c2ccc(Cl)cc2)c2cc(C(=O)N3CCOCC3)sc21	x	i
COc1cccc(-n2nnc3c(=O)n(CC(=O)N4CCC(C)CC4)cnc32)c1	>57	i

The list itself, from the first entry:
compound	Bst PK mod	YjeE inh
O=C(CN(c1ccc(Cl)c(C(F)(F)F)c1)S(=O)(=O)c1ccccc1)N1CCOCC1	x	i
Cc1ccc(S(=O)(=O)N2CCCCC2C(=O)N2CCN(Cc3ccccc3)CC2)cc1 (stereo not drawn)	>11	i
Cn1nc(-c2ccc(Cl)cc2)c2cc(C(=O)N3CCOCC3)sc21	x	i
COc1cccc(-n2nnc3c(=O)n(CC(=O)N4CCC(C)CC4)cnc32)c1	>57	i
CCCCN(C)CCn1c(=S)[nH]c2ccc(N3CCOCC3)cc2c1=O	>57	i
O=C1CSC(=S)N1CC1CCCO1 (stereo not drawn)	>57	i
C=CCNC(=O)C(C)N1C(=O)c2ccccc2C1=O (stereo not drawn)	>57	i
CCOc1cc(S(=O)(=O)NCCN2CCOCC2)c(C)cc1C	>57	i
CNc1ncnc(Sc2nc(N)nc3nc[nH]c23)c1[N+](=O)[O-]	x	i
O=C(CSc1nc2ccccc2c(=O)n1Cc1ccc(C(=O)NC2CC2)cc1)NCc1ccco1	>57	i
Cc1onc(-c2ccccc2)c1C(=O)Nc1sc2c(c1C(N)=O)CCC2	>57	i
CCc1nnc(NC(=O)C(C)N2C(=O)C3C4C=CC(C4)C3C2=O)s1 (stereo not drawn)	>57	i

Further records follow:
compound	Bst PK mod	YjeE inh
COc1ccc(CCNC(=O)C2CCCN2C(=O)Nc2cccc(C(C)=O)c2)cc1OC (stereo not drawn)	>57	i
CCCCCn1c(CN2CCN(CCO)CC2)nc2c1c(=O)n(C)c(=O)n2C	x	i
CCCc1[nH][nH]c(=O)c1C(c1ccccc1)C(C#N)C#N (stereo not drawn)	>57	i
O=C1CCC[C@H]1C(=O)Nc1ccc2ccccc2c1	x	i
COC(=O)c1c(C)n(-c2ccccc2)c2ccc(O)cc12	>57	i
O=C(NCCCN1CCOCC1)c1cc2cc(Cl)cc(Cl)c2oc1=O	>57	i
Nc1c(S(=O)(=O)c2cccs2)c2nc3ccccc3nc2n1Cc1cccs1	>57	i
NNC(=O)Cc1cccnc1	x	i
Cc1csc(Sc2nc3c(c(=O)[nH]c(=O)n3C)n2CCCc2ccccc2)n1	>57	i
CCOCC(=O)Nc1ccc(S(=O)(=O)NCCc2ccccc2)cc1	>57	i
COCCCNc1ncnc2c1cnn2-c1ccc(C)cc1C	>57	i
COc1cc(C)c(Br)cc1S(=O)(=O)N1CCOCC1	>57	i

Next section.
compound	Bst PK mod	YjeE inh
O=C(COC(=O)C1CC(=O)N(C2CCCCC2)C1)c1ccc(F)cc1 (stereo not drawn)	x	i
CCSc1nnc(NC(=O)c2cccs2)s1	x	i
O=C(c1coc2ccc(O)c(CN3CCOCC3)c12)C1CC1	i	i
N#Cc1c2c(c(=S)n(-c3ccccc3)c1N)CCCC2	x	i
O=c1c(/C=N/O)c(Nc2ccccc2)nc2ccccn12	x	i
CNC(=O)c1cc2cc(Cl)cc(OC)c2oc1=O	>57	i
C[C@@H](C(=O)NCc1ccc(S(C)(=O)=O)cc1)[C@H]1C[C@]1(C)[C@H](NC(=O)OCc1ccccc1)c1ccccc1	x	i
COc1cc2[nH]c(=S)n(CCN3CCCCC3C)c(=O)c2cc1OC (stereo not drawn)	>57	i
O=C(CCN(CCO)Cc1ccccc1)Nc1ccc(Br)cc1	>57	i
CCCn1nc(Oc2nc(SC)nc(N(C)C)n2)ccc1=O	>11	x
COc1ccc(CCNC(=O)C2CCN(S(=O)(=O)N3CCCCC3)CC2)cc1OC	>57	i
O=c1c2ccccc2nc(N2CCN(c3ccccc3)CC2)n1Cc1ccccc1	x	i

Additional records
compound	Bst PK mod	YjeE inh
CC(C)CCn1cnc2c(c1=O)c1nc3ccccc3nc1n2Cc1ccc2c(c1)OCO2	>57	i
CCNC(=O)[C@H](C)/C=C/C(NC(=O)OCc1ccccc1)c1ccc(C(=O)OC)cc1 (stereo partly drawn)	x	i
Cc1c(S(=O)(=O)N2CCN(C(=O)c3ccco3)CC2)c(=O)n(C)c(=O)n1C	x	i
O=C(O)c1ccc(NS(=O)(=O)c2cccc3cccnc23)cc1	x	i
CC(C)[C@@H](C(=O)O)N1C(=O)c2ccccc2C1=O	x	i
CCOC(=O)NC1(Nc2ccc(Cl)cn2)Oc2ccccc2O1	>57	i
O=C(Oc1cccc2c(OC(=O)N3CCOCC3)cccc12)N1CCOCC1	>57	i
COc1cc2c(=O)n(Cc3ccccc3)c(=O)n(CC(=O)C(C)(C)C)c2cc1OC	>57	i
Cn1cc(-c2nc3cnc(Oc4cccc(Cl)c4)nc3n(CCC#N)c2=O)c2ccccc21	x	i
Clc1ccc(C2Nc3ccccc3-n3cccc32)cc1 (stereo not drawn)	x	i
CCOc1ccc(OCC)c(NC(=O)C2CCN(S(=O)(=O)c3c(C)noc3C)CC2)c1	x	i
Cc1cc2cc3c(cc2nc1SCC(=O)O)OCCO3	>57	i

Next part
compound	Bst PK mod	YjeE inh
CCc1c(C)c2c(C)nn(-c3ccccc3)c2[nH]c1=O	x	i
CCOC(=O)C1CN(c2cc3c(cc2F)c(=O)c(C(=O)O)cn3CC)OC1C(=O)OCC (stereo not drawn)	>57	i
Cc1cnc(NC(=O)CSc2ncc(-c3ccccc3)n2Cc2ccco2)s1	>57	i
Cc1noc(C)c1-c1cc(N2CCN(C)CC2)ncn1	x	i
CCCn1nc(NC(=O)c2ccncc2)c2cc3ccccc3nc21	x	i
Cc1c(NC(=O)c2ccc3c(c2)OCO3)c(=O)n(-c2ccccc2)n1C	x	i
CCN(CC)Cc1cc(C(C)=O)ccc1OCC(C)C	>26	x
CCn1nnc(NC(=O)C(C)Oc2ccc(Cl)cc2Cl)n1 (stereo not drawn)	u	i
COc1ccc(N2CCN(S(=O)(=O)c3ccc(Cl)c(C(F)(F)F)c3)CC2)cc1	>57	i
Cc1c(C(=O)O)sc2ncnc(N3CCCCC3C)c12 (stereo not drawn)	>57	i
Cc1cc(NC(=O)CSc2ccc3nnc(-c4ccc(F)cc4)n3n2)no1	>57	i
CCCCN(C)CCNC(=O)Cn1c(=O)sc2ccccc21	x	i

Continuation.
compound	Bst PK mod	YjeE inh
COc1cc2nc3c(c([Si](C)(C)C(C)(C)C)c2cc1OC)Cn1c-3cccc1=O	x	i
O=C(c1cccc(C(=O)N2CCN(c3ccc(F)cc3)CC2)c1)N1CCN(c2ccc(F)cc2)CC1	x	i
COc1cccc(-c2nc(-c3ccccc3)no2)c1	9*	i
O=C(NCC1CCCO1)C1CCN(S(=O)(=O)Cc2ccccc2)CC1 (stereo not drawn)	>57	i
O=C(NC1CCCCC1)N(Cc1ccc(F)cc1)Cc1nc2ccccc2c(=O)[nH]1	>57	i
COc1ccc2cc(S(=O)(=O)N3CCN(C)CC3)ccc2c1	>57	i
CCOC(=O)c1c(C)n(C)c2ccc(OC)c(NC(=O)CN3CCC4(CC3)OCCO4)c12	>26	x
O=C(NCCCN1CCCCCC1)[C@@H](c1ccccc1)C1CCCCC1	x	i
O=C(CSCc1ccc(F)cc1)NC1CCCC1	>57	i
COc1cccc(C2=NOC(C(=O)Nc3cccc(C(C)=O)c3)C2)c1 (stereo not drawn)	>57	i
CN(C)C(=O)c1ccc(-c2ccc3ncnc(N(C)Cc4ccco4)c3c2)cc1	x	i
CCS(=O)(=O)c1nc2ccccc2n1Cc1ccccc1Cl	x	i

(continued)
compound	Bst PK mod	YjeE inh
O=[N+]([O-])c1ccc(CCO)cc1	x	i
CCOC(=O)Cn1c2c(c(=N)c3c1CCC3)CCC2	>57	i
COc1ccccc1Nc1nc(N)nc(CSCCO)n1	x	i
O=C(Nc1ccccc1)N1CCC(c2ccccc2)C1 (stereo not drawn)	x	i
COc1cc(NC(=O)C2CC2)c(C(=O)O)cc1OC	x	i
O=C(NCCCN1CCN(c2cccc(Cl)c2)CC1)c1cccc(N2CCCC2=O)c1	>57	i
COc1ccccc1OCC(=O)NCCc1nc2ccccc2[nH]1	x	i
Cc1ccc(C(CC(=O)N2CCCC2)c2ccccc2)c(O)c1C (stereo not drawn)	>57	i
CCOC(=O)c1oc2ccccc2c1NC(=O)COc1ccc(F)cc1	>57	i
Cc1nnc(NC(=O)c2ccccc2F)s1	>57	i
CC1CCc2nn(CC(=O)NC3CCCC(C)C3C)cc2C1 (stereo not drawn)	x	i
CC(C)CC(NC(=O)c1ccco1)C(=O)Nc1ccc2c(c1)OCCO2 (stereo not drawn)	x	i

Marked active in Bst PK mod, of those listed so far:
compound	Bst PK mod	YjeE inh
COc1cccc(-c2nc(-c3ccccc3)no2)c1	9*	i

3 structures from above, arranged by count of non-hydrogen atoms, low to high:
compound	Bst PK mod	YjeE inh
O=[N+]([O-])c1ccc(CCO)cc1	x	i
Cc1ccc(C(CC(=O)N2CCCC2)c2ccccc2)c(O)c1C (stereo not drawn)	>57	i
CC(C)CC(NC(=O)c1ccco1)C(=O)Nc1ccc2c(c1)OCCO2 (stereo not drawn)	x	i

Further results follow.
compound	Bst PK mod	YjeE inh
CCC(=O)Nc1ccc(NC(=O)CSc2nnc(C(C)C)n2C)cc1	>57	i
CC(C)Cn1cnc2c(SCc3ccc(Cl)cc3Cl)nc(N)nc21	x	i
O=C(Nc1ccc(Br)cc1)C1CCCN1S(=O)(=O)c1cccs1 (stereo not drawn)	>57	i
CCNC(=O)CSc1nc2cc(OC)c(OC)cc2c(=O)n1CCC1=CCCCC1	>57	i
CCCS(=O)(=O)N1CCCC(C(=O)NCCCOC(C)C)C1 (stereo not drawn)	>57	i
CCOC(=O)C1CCCN(Cc2nc(N)nc(Nc3ccc(OC)cc3)n2)C1 (stereo not drawn)	>57	i
CCCCCCN(C(=O)CCCCCN1C(=O)NC(c2ccccc2-c2ccccc2)C(C(=O)OCc2ccccc2)=C1C)C(C(=O)NCCCC)c1ccc(OCC(=O)OC)c(C(=O)OC)c1 (stereo not drawn)	x	i
CC(=O)N1CCC2(CCCN(Cc3ccc(C#N)cc3)C2)CC1	x	i
CCSc1nnc([C@@H]2CCCN2C(=O)OC(C)(C)C)o1	>57	i
C=CCSc1nnc(NC(=O)CSc2nnc(C)s2)s1	>57	i
Fc1cccc(Cl)c1-c1nnc2ccc(N3CCOCC3)nn12	>57	i
O=C(NCC1CC1)C1CCCN(S(=O)(=O)c2ccc(-n3cnnn3)cc2)C1 (stereo not drawn)	>57	i

New compounds follow.
compound	Bst PK mod	YjeE inh
N#Cc1cccc(NC(=O)N2CCCC3(CCN(S(=O)(=O)c4ccccc4)CC3)C2)c1	x	i
CCOc1ccc(C2CC(c3cccc(Cl)c3)n3nc(N)nc3N2)cc1 (stereo not drawn)	x	i
CC(C)Oc1ccc(C2c3c(oc4ccccc4c3=O)C(=O)N2CCCN2CCOCC2)cc1 (stereo not drawn)	>57	i
C/C=C/c1ccc(O)c(OC)c1	x	i
O=C(NCc1cccnc1)c1ccc(Cl)c(Cl)c1	x	i
CCOC(=O)Cn1c(=O)oc2cc(S(=O)(=O)Nc3ccc(N(CC)CC)cc3C)ccc21	x	i
Clc1cc(NCc2cccs2)ccc1N1CCOCC1	x	i
CCN=C(NCC)SC1CC(=O)N(c2cccc(OC)c2)C1=O (stereo not drawn)	x	i
COc1cc2c(cc1OC)C1=C(C#N)CN(CC(=O)O)CN1CC2	x	i
O=C(COc1ccc(Br)cc1CO)Nc1ccc(F)cc1	x	i
COc1ccc(CCNC(=O)C2CCN(c3nn4c(=O)cc(C)nc4s3)CC2)cc1OC	>57	i
CSc1nc2ccc(S(=O)(=O)N3CCOCC3)cc2s1	>57	i

Further records:
compound	Bst PK mod	YjeE inh
Cc1ccc(-c2noc(-c3ccccc3C(=O)N3CCCC3)n2)cc1	x	i
O=C(CSc1nc2c(c(=O)n1-c1ccc(Cl)cc1)SCC2)Nc1nccs1	>57	i
CCOCCN(C=O)c1cccc(OC)c1	>57	i
COc1cccc(CCC(=O)O)c1OC	>57	i
Cc1nn(-c2ccccc2)c(C)c1C(=O)OCC(=O)Nc1ccc2c(c1)OCO2	i	i
Cc1cccc(OCc2nc(C#N)c(N3CC(C)CC(C)C3)o2)c1 (stereo not drawn)	x	i
O=C1CC(N2CCOCC2)C(=O)N1CCc1ccccc1 (stereo not drawn)	>57	i
Brc1ccccc1-c1nc(-c2ccccc2)no1	x	i
COc1cc(C2c3c(oc4ccccc4c3=O)C(=O)N2Cc2cccnc2)cc(OC)c1OC (stereo not drawn)	>57	i
Cc1nc(CNS(=O)(=O)c2cccc(F)c2)cs1	>57	i
Cc1cc(N2CCOCC2)c2c(N)c(C)cc(C)c2n1	>57	i
CCOC(=O)c1ccc(NC(=O)N2CCN(CCc3ccccc3)CC2)cc1	x	i

Further structures follow:
compound	Bst PK mod	YjeE inh
CCOC(=O)C1CCCN(CC(=O)/C=C2/N(C)c3ccccc3C2(C)C)C1 (stereo not drawn)	>57	i
c1ccc(Nc2ncnc3c2oc2ccccc23)cc1	5.4*	i
O=C(O)C[C@@H]1CCCc2ccccc2[C@H]1O	x	i
CCN=c1scc(C)n1/N=C/c1ccsc1	x	i
